AID504770 = E. coli YBA685 growth inhibition, screen for V. cholerae RctB inhibitors; E. coli YBA685 rctB-dependent plasmid, OD600 growth, 3 h; active compounds read low; z-score (no concentration beside the values); 0.27% of 130,000 active; AID 504770;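 active = z-score under -2 on both plates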;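 also: wells of about 30 µL received 100 nL stock; score is relative to mean and SD of the test wells; the first replicate is given; strong numbers were not always called active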
CapD inh = CapD enzyme inhibition; purified CapD enzyme, fluorescence intensity read-out; active compounds read low; some hits fall short of the stated cut; z-score (concentration not given with the values); 0.23% of 140,000 active;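 active = z-score under -4 in either of two replicates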;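 also: stock transfer was 100 nL into about 40 µL; score is relative to mean and spread of the plate; one replicate is shown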
Numbers without * were called inactive; x = no result given.

SMILES	AID504770	CapD inh
O=C1C=CC(=O)N1c1ccccc1Oc1ccc(Cl)cc1Cl	1.4	-0.62
Cc1onc(-c2ccccc2)c1C(=O)OCC(=O)N1CCCC1	0.65	x
CCCc1c(C)nc2ccccc2c1SCC(=O)O	-0.5	-0.065
Cc1nn(-c2ccccc2)c2c1C(c1cccs1)N(C1CC1)C(c1ccccc1)=N2 (stereo not drawn)	-0.7	x
CCOC(=O)C1=CN(Cc2ccc(OC)c(OC)c2)C=C(C(=O)OCC)C1c1cc(OC)c(OC)c(OC)c1	x	19
CC(C)N(C(=O)COn1nnc2ccc(S(=O)(=O)N(C)C)cc21)C(C)C	-0.3	x
Cc1cc(C)n(-c2nc3c(c(=O)[nH]c(=O)n3C)n2CC(O)COc2ccccc2C)n1 (stereo not drawn)	-0.65	0.045
Cc1cccc(NC(=O)CSc2cn(Cc3cccc(F)c3)c3ccccc23)c1C	0.2	8.6
Cc1cc(C)c(C#N)c(Sc2ccccc2NC(=O)c2ccc(F)cc2)n1	x	-0.13
O=C(CSc1ncn(-c2ccccc2)n1)c1ccccc1	x	-0.27
CC(NS(=O)(=O)c1cccc(Cl)c1)C(=O)N(C)C1CCN(C)CC1 (stereo not drawn)	-5.3*	x
CC(=O)Nc1ccc(C(=O)N(CC#N)CC#N)cc1	0.15	0.35
Cc1cccc2sc(NC(=O)c3sc4ncn(CC(=O)N5CCOCC5)c(=O)c4c3C)nc12	x	0.38
O=C1C2C3C=CC(C3)C2C(=O)N1c1ccc(-c2nc3ccc(N4C(=O)C5C6C=CC(C6)C5C4=O)cc3[nH]2)cc1 (stereo not drawn)	x	9.2
Cc1ccc(S(=O)(=O)N2CCCCCC2)cc1	x	-0.36
CCN(c1ccccc1)c1nc2ccc(Cl)cc2n2cnnc12	-0.1	-0.09
COc1ccc(-c2nc(NCCc3c[nH]c4cc(OC)ccc34)sc2C)cc1	0.6	-0.15
Cc1cc(C)c(C#N)c(SCC(O)CSc2ccc(Cl)cc2)n1 (stereo not drawn)	0.3	0.74
CC(C)(C)c1ccc(C(=O)N2N=C(c3ccccc3)CC2(O)C(F)(F)F)cc1 (stereo not drawn)	x	-0.54
O=C(c1ccccc1)N(C(=O)c1ccccc1)c1nccc2cccnc12	x	-0.79
CN(C)/C=C1/C(=O)NN=C1CSc1ccccn1	x	-0.91
C=CCn1c(-c2ccccc2)c[nH]c1=S	0.15	x
CC(=O)Oc1ccc(/C=C2\N=C(c3cc([N+](=O)[O-])ccc3Cl)OC2=O)cc1OC(C)=O	x	-0.24
O=C(CSc1nc2sc3c(c2c(=O)[nH]1)CCCC3)N(CCO)CCO	x	-0.42
Cc1c(Nc2nc3nonc3nc2Nc2cccc(Cl)c2)c(=O)n(-c2ccccc2)n1C	x	0.22
CC(C)(CO)NC(=O)C(Cc1ccccc1)N1C(=O)c2ccccc2C1=O (stereo not drawn)	0.25	-0.03
CCN1CCN(C(=O)c2cccc(S(=O)(=O)N(C)c3ccccc3)c2)CC1	0.9	x
CC1(C)CC(=O)C(C2(O)C(=O)c3ccccc3C2=O)C(=O)C1	-0.9	-0.22
CCC1(C)CC(CCNCc2ccc(F)cc2)(c2ccc(F)cc2)CCO1 (stereo not drawn)	x	-0.21
COc1ccc(N2C(=O)CSC2=S)cc1	-0.85	-0.035
CCN(CC)S(=O)(=O)c1ccc(N(C)CCc2ccc(OC)c(OC)c2)nc1	0.35	x
COc1ccc(Oc2ccc(-c3ccn[nH]3)cc2)cc1	x	-0.26
O=C(NCCc1cccc(C(F)(F)F)c1)c1ccc2n[nH]nc2c1	x	0.18
CCOc1cccc2cc3c(=O)n(-c4ccc(Br)cc4)nc-3oc12	-0.2	-0.91
COc1ccc(-n2ncc3c(N(Cc4ccccc4)Cc4ccccc4)ncnc32)cc1	0	-0.49
Cc1cc(C(=O)Nc2ccccc2)oc(=O)c1	-0.1	-1.6
COc1ccc([N+](=O)[O-])c(OC)c1C(=O)Nc1ccccc1C(=O)NCC1CC1	x	-0.56
CCN(c1ccccc1)S(=O)(=O)c1cc(OC)ccc1OC	1.1	-0.28
Cc1ccc(N/C(=C\C(=O)c2ccccc2)C(=O)O)cc1	1	-1.8
COc1ccc(C2CC(c3ccccc3)=NN2C(=O)c2ccc(Br)o2)cc1 (stereo not drawn)	x	-0.055
Cc1sc2nc[nH]c(=O)c2c1-c1ccc(F)cc1	-0.3	-0.69
COc1ccc(Cl)cc1N/C=C(\C#N)c1nc(-c2cc3cc(Br)ccc3oc2=O)cs1	x	-0.06
CCc1c(C)sc(NC(=O)c2cc3n(n2)C(C(F)(F)F)CC(c2ccc(OC)c(OC)c2)N3)c1C#N (stereo not drawn)	x	2.1
CCOC(=O)c1sc2sc(C(=O)OCC)c(-c3ccc(Cl)cc3)c2c1N	1.3	-0.79
CN1CCSc2ccc(C(=O)Nc3cccc(F)c3)cc21	1.2	81
O=C(c1csc(-c2cccs2)n1)N1CCCN(S(=O)(=O)c2ccc(F)cc2)CC1	-0.35	x
O=C(Sc1ncccn1)c1ccc(F)cc1	0.9	x
O=C1CC(C(=O)c2ccccc2)CO1 (stereo not drawn)	0.15	0.21
CCCCc1ccc(NC(=S)NCCCN2CCOCC2)cc1	1.1	-1.1
Cc1ccc(-c2csc(-c3ccc(Cl)cc3)n2)cc1	x	0.95
O=C(NCc1ccc(F)cc1)N1CCSc2ncccc21	-0.1	-1
CCOC(=O)C1=C(C)N(C)C(=O)NC1c1ccccc1OC (stereo not drawn)	-1.3	-0.03
NC(=O)NN=C1c2cc(S(=O)(=O)NCc3ccccc3)ccc2-c2ccc(S(=O)(=O)NCc3ccccc3)cc21	x	-1.4
CNC(=O)c1ccc(OCC(C)C)cc1	-0.95	-0.2
O=C(OCC(=O)N1CCC(Cc2ccccc2)CC1)c1cccnc1Cl	1	-0.37
CC1=CC(C)(C)N(C(=O)CSc2nc(C)cc(C)n2)c2ccccc21	0.1	-0.6
O=C(Oc1ccc(Cl)cc1Cl)c1csnn1	-0.65	-1.1
COc1cccc(C(=O)Nc2cc(C)nn2-c2ccccc2)c1OC	-0.65	2.2
CCCNC(=O)CSc1nnc(-c2ccccc2)n1CC	-1.9	x
O=[N+]([O-])c1cc(C(F)(F)F)ccc1N1CCC(n2cccc2)CC1	x	0.11

A stretch of the results above, as a working copy:
SMILES	AID504770	CapD inh
O=C(Oc1ccc(Cl)cc1Cl)c1csnn1	-0.65	-1.1
COc1cccc(C(=O)Nc2cc(C)nn2-c2ccccc2)c1OC	-0.65	2.2
CCCNC(=O)CSc1nnc(-c2ccccc2)n1CC	-1.9	x
O=[N+]([O-])c1cc(C(F)(F)F)ccc1N1CCC(n2cccc2)CC1	x	0.11

Profiles, looked up by structure. Order of screens: AID504770 | CapD inh
`CCCCc1ccc(NC(=S)NCCCN2CCOCC2)cc1` across the screens: 1.1 | -1.1
`O=[N+]([O-])c1cc(C(F)(F)F)ccc1N1CCC(n2cccc2)CC1` across the screens: x | 0.11
`COc1cccc(C(=O)Nc2cc(C)nn2-c2ccccc2)c1OC` across the screens: -0.65 | 2.2
`O=C1CC(C(=O)c2ccccc2)CO1` (stereo not drawn) across the screens: 0.15 | 0.21
`CCc1c(C)sc(NC(=O)c2cc3n(n2)C(C(F)(F)F)CC(c2ccc(OC)c(OC)c2)N3)c1C#N` (stereo not drawn) across the screens: x | 2.1

Further structures follow.
SMILES	AID504770	CapD inh
COC(CNc1ncnc2sc(-c3ccccc3)cc12)OC	-0.35	x
CS(=O)(=O)c1noc(-c2cccs2)c1C#N	-0.4	1.8
Cc1ccc(-c2nc3ccccc3s2)cc1NC(=O)c1ccc2ccccc2c1	x	2.2
N#Cc1c(C(F)(F)F)cc(-c2ccccc2)nc1Oc1ccc(Cl)cc1	x	52
O=[N+]([O-])c1ccc(/C=C/S(=O)(=O)NCc2ccc(Cl)cc2)cc1	x	-0.24
CCOC(=O)c1cc(C#N)c(Oc2ccccc2)nc1C(F)(F)F	-0.45	0.3
O=c1c2cc(Cl)ccc2ncn1Cc1cc(=O)n2ccsc2n1	0.5	x
CCC1CCCCN1CCCN (stereo not drawn)	0.35	x
Cc1cc2c(c(Sc3ccc(Cl)cc3)n1)C(=O)NC2=O	-1.1	-0.52
COc1ccccc1CNC(=O)c1ccc2c(=O)n(Cc3cccc(Br)c3)c(=S)[nH]c2c1	x	0.54
CC1CCC(N2CCN(c3ncccn3)CC2)C1 (stereo not drawn)	-0.9	1.7
O=C(Cn1c(-c2ccco2)nc2ccccc21)Nc1ccccc1Cl	-0.05	12
COc1cccc(C(=O)N2CCN(c3ccccc3)CC2)c1	0.2	x
CC(C)Cn1c2ccccc2c2nc3ccccc3nc21	0.35	0.39
O=C(Cn1c(=O)c2cccn2c2cccnc21)NCCN1CCCCCC1	-0.25	26
CNc1nc(-c2cn(CCC#N)c3ccccc23)cs1	-0.6	x
CC1OP(=S)(C(Nc2ccccc2)c2ccccc2)OC1C (stereo not drawn)	0.5	75
COC(=O)c1ccccc1NC(=S)NC(C)=O	1.6	-0.76
O=C1C(=O)N(c2nncs2)C(c2ccc(Cl)cc2Cl)/C1=C(/O)c1ccc(F)cc1 (stereo not drawn)	x	-0.24
CN1C(=O)C2(c3ccccc31)N1CC3(C)CN2CC(C)(C1)C3=O (stereo not drawn)	x	-0.35
CC1(C)CC(=O)C=C(N2CCN(S(=O)(=O)/C=C/c3ccccc3)CC2)C1	-0.25	x
O=C(Nc1ncn[nH]1)c1cccs1	x	-0.14
Cc1ccc(/C=C/C(=O)N2CCN(S(=O)(=O)/C=C/c3ccccc3)CC2)o1	-1	x
O=C(c1cccc(Br)c1)N1N=C(C(F)(F)F)CC1(O)c1ccc(F)cc1 (stereo not drawn)	x	0.39
CCCc1cc(=O)oc2c(CN3CCN(C)CC3)c(O)ccc12	-0.7	70
C=CCn1cnc2ccc(Br)cc2c1=O	-0.6	-0.055
CC1Cn2cc(C(=O)N3CCN(c4ccccc4)CC3)c(=O)c3c(Cl)ccc(c32)O1 (stereo not drawn)	2	12
CCN(CC(=O)Nc1ccccc1OC)C(=O)c1cccc(CS(C)(=O)=O)c1	0	x
CSc1nc2c3ccccc3n(C(C)=O)c2n1Cc1ccccc1	1.8	x
CCn1cnc2cc(NCc3ccccc3OC)ccc21	-0.45	69
Cc1cc(C(=O)COC(=O)C2CC2)c(C)n1CC(F)(F)F	0.85	x
COC(=O)c1sc2nc(C)[nH]c(=S)c2c1C	1.1	x
Cc1cc(SCC(=O)NCc2ccco2)nc2ccccc12	0.05	-0.21
CNC1CCCc2c1n(C)c1ccc(Cl)cc21 (stereo not drawn)	-0.45	0.37
NC1=C(C(=O)NCc2ccco2)C(=Nc2ccccc2)SC1C(=O)Nc1ccc(Oc2ccccc2)cc1 (stereo not drawn)	0.05	x
CN1C(=O)Cc2cc(S(N)(=O)=O)ccc21	-1.1	-0.26
Cc1cc(C)c2c(N)c(C(=O)c3cccs3)sc2n1	0.65	-0.39
COC(=O)C1=C(Nc2ccccc2NC(=O)c2ccc(Cl)cc2)CSC1	-0.2	0.045
CCC(CO)NCc1ccc(-c2ccc(F)c(Cl)c2)o1 (stereo not drawn)	-0.15	x
O=C(c1ccccc1F)N1CCOCC1	x	0.29
c1cncc(CSc2ccc(-c3cccs3)nn2)c1	-0.6	0.33
C=C[n+]1ccn(-c2nc3ccccc3nc2[N-]S(=O)(=O)c2ccccc2)c1	1.2	x
CCN1C(=O)/C(=C2\SC(=S)N(NC(C)=O)C2=O)c2ccccc21	-0.2	-0.53
COc1ccc(OC)c(C2CC(c3ccc(Br)cc3)=NN2C(C)=O)c1 (stereo not drawn)	x	-0.63
O=C(O)C1CC2CCCC(C1)C2=O (stereo not drawn)	0.45	x
Cc1cc(C)c2nc(NCCN3CCCC3)cc(C)c2c1	-1.8	x
Cn1c(N)c(C(=O)CSc2ncnc3nc[nH]c23)c(=O)n(C)c1=O	x	-0.09
CN1CCC(NC(=O)Cc2c(F)cccc2Cl)CC1	1.3	-0.61
Cc1ccc(C(N)=S)c(C)c1	0.15	x
CSc1ccc(/C=C(\C#N)C(=O)NC2CCCCC2C)cc1 (stereo not drawn)	-0.2	x
CC1(C)OC2CS(=O)(=O)CC2O1 (stereo not drawn)	-0.45	0.045
Cc1cccn2cc(CCNS(=O)(=O)c3ccc(Oc4ccccc4)cc3)nc12	1.6	-1.3
c1ccc(Oc2cccc3cccnc23)nc1	-0.15	-0.38
CCN(CC)c1ncnc2c1c(-c1ccccc1)cn2-c1ccccc1	x	-0.29
O=C(Nc1ccccc1)C1CCCN1/C=C/C(=O)C(F)(F)F (stereo not drawn)	-2.1	x
COc1ccc(CC(=O)N/N=C/c2cccc3c2OCO3)cc1OC	x	39
NCCNC(=O)c1c(O)c2cccc3c2n(c1=O)CCC3	-0.85	x
CS(=O)(=O)/N=C(\NC#N)c1ccccc1	-0.7	0.72
CCOC(=O)c1c(Cc2ccccc2Cl)cn(C)c1C	-0.35	x
COc1cc(N=C(C)c2c(C)[nH]n(-c3nc4ccccc4s3)c2=O)cc(OC)c1	-0.35	-1.1

Look-ups from the list.
AID504770 with O=C(O)C1CC2CCCC(C1)C2=O (stereo not drawn) = 0.45
AID504770 with CCOC(=O)c1c(Cc2ccccc2Cl)cn(C)c1C = -0.35

Going on with the list:
SMILES	AID504770	CapD inh
Cc1[nH]n(C(N)=S)c(=O)c1N=Nc1ccc(Br)cc1	0.95	0.44
O=C1NC(=O)N(c2ccc(Cl)cc2)C(=O)/C1=C\c1cc2c(cc1Br)OCO2	x	-0.24
CCN1C(=O)/C(=C2\SC(=S)N(NC(=O)c3ccccc3Cl)C2=O)c2ccccc21	x	-1.6
Cc1cnc(NC(=O)CSc2nc3sc4c(c3c(=O)n2C)CCCC4)s1	-1.2	x

Only part of the results is shown (hit frequency here may not be typical).
